High-throughput results from PubChem BioAssay.
Rce1 inhib – inhibitors of yeast Ras-converting enzyme; Q03530; yeast membranes, quenched prenylated peptide cleavage fluorescence; calls only; 290,000 tested, 0.27% active;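 active = fall in fluorescence gain of 50% or more versus controls, with final raw signal at or below 3038400; inconclusive = same 50% fall but final raw signal above 3038400; inactive = fall in fluorescence gain under 50%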;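 note: plate controls were neutral control wells for no effect and wells lacking membranes for full effect; tested at 10 µM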
Target sequence (Q03530 whole entry, looked up): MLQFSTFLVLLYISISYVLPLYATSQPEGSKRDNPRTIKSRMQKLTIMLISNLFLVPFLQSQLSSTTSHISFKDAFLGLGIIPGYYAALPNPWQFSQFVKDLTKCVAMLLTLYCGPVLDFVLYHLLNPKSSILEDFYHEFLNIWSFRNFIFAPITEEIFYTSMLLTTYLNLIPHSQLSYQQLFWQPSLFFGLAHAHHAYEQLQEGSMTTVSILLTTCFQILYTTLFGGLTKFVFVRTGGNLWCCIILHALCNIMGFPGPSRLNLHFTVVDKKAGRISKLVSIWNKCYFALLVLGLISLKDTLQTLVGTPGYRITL
HIV Env fusion – HIV envelope-mediated fusion inhibition. 360,000 tested, 1.1% active. HeLa-JRFL Env/CEM21 cell fusion, luciferase. inhibition, % at 12.3 µM. AID 651610;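 active = mean replicate inhibition score of at least 50 and every replicate individually at or above 50; inconclusive = only one of the two criteria met; inactive = mean below 50 and not all replicates reaching 50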;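 note: 0% = plate neutral controls and 100% = maraviroc near 300 nM; one replicate is shown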
MT1-MMP act inh – blocks activation of human MT1-MMP; HT1080 RFP-PRO-GFP cells, GFP/RFP ratio fluorescence, overnight; percent of plate control window, DMSO zero; GFP/RFP ratio change, % at 20 µM; 360,000 tested, 0.061% active; AID 651647;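 active = GFP/RFP ratio change of at least 30% with cell ATP level not reduced by more than half and red fluorescence within 50% of control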; note: strong numbers were not always called active
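Test system: HT1080 RFP-PRO-GFP cells; Benchmarks: DMSO and RFP-L50D-GFP cell wells; Timing: cells overnight before dosing, compound overnight, 37 °C, 5% CO2; Compound: one 20 µM compound dose with 1% DMSO; Read-out: GFP/RFP fluorescence ratio.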
Yeast UUG start – modulators of start codon recognition fidelity in yeast | S. cerevisiae UUG-firefly luciferase reporter, luminescence/redox ratio | 350,000 tested, 0.13% active | AID 602363 | activity score, % at 18.7 µM;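 active = replicate mean at a twofold rise or more, about +100% in these data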;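 note: firefly luciferase made from a UUG start codon reports start codon fidelity; reporter light over untreated wells divided by growth signal over untreated wells; some hits fall short of that in this replicate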
PABP polyA inh – PABP-poly(A) binding inhibition. PABP-poly(A) RNA binding, fluorescence polarization. inhibition, % at 35 µM. 290,000 tested, 1% active;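 active = 50% or more with normal probe brightness, or confirmed in later tests; inconclusive = above 50% with abnormal brightness, or retests that disagree; inactive = below 50% or failed in later tests; about a fifth of its hits are not listed in these tables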;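 note: calls also rest on retests at 20 µM and on dose response follow-up; controls were probe without protein and protein plus probe with vehicle; some compounds called inactive have numbers as strong as hits; many hits fall short of the cut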
Target sequence (P11940 whole entry, looked up): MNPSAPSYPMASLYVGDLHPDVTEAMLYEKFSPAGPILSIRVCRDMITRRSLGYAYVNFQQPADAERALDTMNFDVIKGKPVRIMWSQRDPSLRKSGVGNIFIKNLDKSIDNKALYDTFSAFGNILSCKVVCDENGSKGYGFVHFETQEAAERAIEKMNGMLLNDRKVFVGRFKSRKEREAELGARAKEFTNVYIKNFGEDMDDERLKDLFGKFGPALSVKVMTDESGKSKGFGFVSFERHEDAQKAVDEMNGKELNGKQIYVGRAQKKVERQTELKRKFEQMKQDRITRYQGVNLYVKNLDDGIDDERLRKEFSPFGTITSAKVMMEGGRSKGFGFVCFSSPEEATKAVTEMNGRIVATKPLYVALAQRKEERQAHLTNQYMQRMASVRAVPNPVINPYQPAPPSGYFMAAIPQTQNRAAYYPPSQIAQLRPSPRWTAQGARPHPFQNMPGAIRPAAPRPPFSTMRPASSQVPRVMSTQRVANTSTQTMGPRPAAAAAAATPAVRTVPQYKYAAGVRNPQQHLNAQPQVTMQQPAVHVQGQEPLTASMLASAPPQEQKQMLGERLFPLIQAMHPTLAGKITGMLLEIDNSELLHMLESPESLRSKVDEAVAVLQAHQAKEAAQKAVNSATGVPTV
eIF4H inh – inhibitors of RNA binding by human eIF4H; Q15056; eIF4H fluorescence polarization binding assay; inhibition, % at 35 µM; 290,000 tested, 0.94% active;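 active = 50% or more with normal probe brightness, or confirmed in later tests; inconclusive = above 50% with abnormal brightness, or retests that disagree; inactive = below 50% or failed in later tests; about a fifth of its hits are not listed in these tables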;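 note: calls also rest on retests at 20 µM and on dose response follow-up; 0% = protein and probe with vehicle and 100% = probe without protein; strong numbers were not always called active; many hits fall short of the cut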
CSC inhib – cancer stem cell inhibition | inhibition, % at 7.5 µM | cancer stem cell-like cells viability, luminescence | 300,000 tested, 1.1% active;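 active = mean at 75% or more and at least half the replicates too; inconclusive = mean and replicates disagree; tested in HMLE shEcad cells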;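 note: 0% = median of negative and 100% = median of positive control wells; the first replicate is given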
eIF4H inh retest – second read-out of eIF4H inh, no call of its own (marks repeat the call); inhibition, %; compound at 20 µM; confirmation average;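 mean of two retest wells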
PABP polyA inh retest – also measured in PABP polyA inh; calls as there; inhibition, %; compound at 20 µM; confirmation repeats;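 mean of two retest wells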
MT1-MMP act inh RFP – recorded beside MT1-MMP act inh, whose call it bears; RFP signal change, %; measured here: RFP expression control read;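 0 = vehicle wells; hits needed this value within 50% of zero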
* = called active by the depositor; i = inactive; ? = inconclusive; . = no result given; & = joins results of further samples.

Sample of the layout:
SMILES	Rce1 inhib	HIV Env fusion	MT1-MMP act inh	MT1-MMP act inh RFP	Yeast UUG start	PABP polyA inh	eIF4H inh	CSC inhib	others
COC(=O)C(Cc1ccccc1)NC(=O)CNC(=O)c1sc2ccccc2c1Cl (stereo not given)	i	-28	0	0	3	12	-18	-1
CC(C)NC(=O)CSCc1ccccc1Cl	i	-111	4	2	-16	7	-1	.
Nc1ccccc1/C=N\N=C/c1ccccc1N	i	-124	.	.	.	.	.	52

The list itself, from the start:
SMILES	Rce1 inhib	HIV Env fusion	MT1-MMP act inh	MT1-MMP act inh RFP	Yeast UUG start	PABP polyA inh	eIF4H inh	CSC inhib	others
COC(=O)C(Cc1ccccc1)NC(=O)CNC(=O)c1sc2ccccc2c1Cl (stereo not given)	i	-28	0	0	3	12	-18	-1
CC(C)NC(=O)CSCc1ccccc1Cl	i	-111	4	2	-16	7	-1	.
Nc1ccccc1/C=N\N=C/c1ccccc1N	i	-124	.	.	.	.	.	52
Cc1nc(-c2ccccc2)c(Cc2ccccc2O)c(=O)[nH]1	i	-4	2	0	.	4	2	-10
CCCCCCn1c(=O)n2n(c1=O)C[C@]1(OC(=O)NCc3ccccc3F)CN(S(=O)(=O)c3ccc(C)cc3)C[C@]1(O)C2	.	-94	0	-10	3	.	.	.
CSc1ccc(CN2CCN(C(=O)c3ccc([N+](=O)[O-])cc3)CC2)cc1	.	?	-14	-24	.	0	1	5
CN(C)c1ccc(C(O)P(=O)(OC2CCCCC2)OC2CCCCC2)cc1 (stereo not given)	i	40	3	4	2	-4	7	-6
CCOc1ccc(C2CC(c3cccc(OC)c3)n3nc(N)nc3N2)cc1 (stereo not given)	i	-12	7	3	-25	-8	-9	-37
CCOC(=O)Cn1nc(CC)c2ccccc2c1=O	i	.	9	3	-16	3	2	15
COc1ccc(OCC(=O)NNc2c3ccccc3nc3ccccc23)cc1	i	59*	35*	-13*	-5	-12	-9	21
CCOC(=O)N(C)c1c(CC)nc2c(OCc3cccc(Cl)c3)cccn12	.	-25	-8	-8	-13	.	.	.
N#CC1=C(O)CCCn2c1nc1ccccc1c2=O	i	-38	8	2	-22	4	-4	9
Clc1ccccc1OCCCCN1CCCC1	i	.	6	2	-10	1	7	-18
Cc1ccc2nc(-c3cc(-c4ccccc4)no3)cn2c1	i	-58	1	-1	-17	2	4	-12
CCOC(=O)CSc1nc(N)c2c3c(sc2n1)CCCC3	i	-26	2	-3	4	6	-5	10
COc1ccc(SCC(=O)Nc2ccccc2Cl)cc1	i	2	-2	1	.	7	-7	-2
Cn1ccnc1SCC(=O)Nc1ccc2c(c1)OCCO2	i	-1	-2	3	-32	-3	-6	4
CCOc1ccc(NCc2nnc(SCC(=O)Nc3nc(-c4ccccc4)cs3)n2-c2ccccc2)cc1	i	11	3	1	.	5	-3	-9
CCN(CC)S(=O)(=O)c1ccc(N2CCCC2)c(C(=O)OCC(=O)Nc2cc(C)on2)c1	i	7	2	0	.	1	4	-6
CC(=O)Nc1cc2c(cc1NC(=O)Cn1nc(-c3ccccc3)ccc1=O)OCCO2	i	-21	0	0	-7	4	5	.
O=C(NC(=S)Nc1ccc2oc(=O)ccc2c1)c1cc2ccccc2o1	i	-1	1	-1	-8	3	6	11
CCN1CCN(c2c(S(=O)(=O)c3ccc(C)c(C)c3)cnc3ccc(F)cc23)CC1	i	-2	-9	-4	-8	-1	-13	1
Cc1ccnc(NC2CCCCC2)c1	i	-2	3	4	.	-8	-3	-3
C[C@@H]1CN([C@H](C)CO)C(=O)CCCn2nncc2CO[C@H]1CN(C)C(=O)C1CC1	.	22	4	3	-9&-16	.	.	.
O=C(NCCNC(=O)c1ccccc1O)c1ccccc1O	i	4	4	-1	-9	0	-2	-9
Cc1cc(C(=O)NCC(=O)Nc2ccc(F)c(F)c2)c(C)o1	.	6	2	2	-14	.	.	-15
Cc1nc2ccccn2c1C(=O)N/N=C/c1ccccc1[N+](=O)[O-]	i	.	.	.	-17	-10	-6	-3
O=C(Nc1nnc(S(=O)(=O)N2CCCC2)s1)c1ccccc1F	i	-15	2	1	-16	9	-9	4
O=C(O)/C(=C\c1ccc(Cl)c([N+](=O)[O-])c1)c1ccc(S(=O)(=O)N2CCCC2)s1	.	.	0	3	2	.	.	-1
O=C(Cn1c2[n+](c3ccc(C(F)(F)F)cc31)CCCCC2)Nc1c(F)cccc1F	i	4	2	0	.	6	-4	-10
Fc1ccc(Cn2ccc(-c3cnc(-c4ccccc4)s3)n2)cc1	i	.	-5	-25	.	-10	-6	1
O=C(OCc1ccccc1)N1CCC2CC1c1cc(N3CCN(S(=O)(=O)c4cc(Cl)cc(Cl)c4)CC3)ccc12 (stereo not given)	.	12	2	-3	-19	.	.	.
Cc1ccc(CN2CCN(Cc3c(C)nn(C(C)C)c3C)CC2CCO)o1 (stereo not given)	i	0	-2	0	.	3	10	-13
CCOC(=O)C1CCN(Cc2ccccc2C)CC1	i	.	3	10	-5	22	38	0
CC(C)CC(=O)N1CCC(O)(CS(=O)(=O)c2ccc(Cl)c(Cl)c2)CC1	i	1	6	6	1	11	6	.
Cc1cccc(OCc2ccc(C(=O)Nc3cc(C)on3)o2)c1	i	-4	0	1	-14	4	-10	.
COc1ccc(C(C)C)cc1S(=O)(=O)N1CCN(c2ccccc2)CC1	i	19	-4	0	.	-4	-2	11
CN(C(=O)CCc1nnc(Cc2ccc(-c3ccccc3)cc2)o1)C1CCOCC1	i	5	2	-6	-8	2	-4	-12
CCCCNC(=O)Cn1nc(-c2ccc(C)cc2)ccc1=O	i	.	-1	1	3	-9	-6	-10
CCN(CCCNC(=O)c1[nH]c(C)c(C(C)=O)c1C)c1ccccc1	i	.	0	-4	-15	-1	-5	12
O=C(CSc1ccc(-c2ccccn2)nn1)Nc1ccc(F)c(F)c1	i	33	-1	-22	-18	8	2	4
COc1cc(NC(=O)c2cccnc2Sc2ccc(C)c(C)c2)cc(OC)c1OC	i	22	0	-4	6	-6	-9	0
CCC1C/C(=C/c2ccco2)C(=O)/C(=C/c2ccco2)C1 (stereo not given)	.	.	.	.	.	-3	84	-7	eIF4H inh retest=4;PABP polyA inh retest=-1
NC(Cc1ccc2nonc2c1)C(=O)O (stereo not given)	i	.	6	6	-12	22	-5	-14
O=c1[nH]cc(S(=O)(=O)N2CCN(c3ccccc3F)CC2)c(=O)[nH]1	.	-30	2	7	-16	.	.	.
CC(=O)c1ccc(NC(=O)c2cc3ccccc3o2)cc1	i	-66	7	1	-7	-5	-1	-10
O=C(NNC(=O)c1ccncc1)Nc1cccc([N+](=O)[O-])c1	i	8	0	0	.	-4	3	-7
O=c1c2ccccc2nc2n1CCS2(=O)=O	i	-1	0	0	1	4	8	1
COc1ccc(C(=O)/C=C2\NCCc3cc(OC)c(OC)cc32)cc1OC	i	14	0	3	-2	0	0	-7
CCCCCCCc1n[nH]c(=S)n1Cc1ccccc1	i	2	-1	-3	.	0	-3	-17
CCc1nc2cc(Cl)c(Cl)cc2[nH]1	i	16	-2	-1	-23	-1	-2	-3
COc1ccc(NC(=O)C[C@H]2C(=O)N(Cc3ccccc3)C[C@@H]2CSC)cc1	.	-13	1	2	-8	.	.	.
CCc1ccc(CNCc2ccc(F)cc2)cc1	i	5	4	4	.	19	-6	-11
COc1cc2nc(C3CCC3)n(NC(=O)c3ccco3)c(=O)c2cc1OC	i	-12	-1	0	-2	-15	-13	-18
CCOc1ccc(NC(=O)CN2CCN(CC(=O)Nc3ccc4c(c3)OCO4)CC2)cc1	i	.	0	-2	-14	4	11	-16
COc1cccc(NC(=O)N2CCN(S(C)(=O)=O)CC2)c1	i	1	2	0	.	-10	-16	0
CCCOC(=O)Nc1ccc(C(N)=O)cc1	i	.	-1	3	-12	-10	0	-26
CC(C)NC(=O)c1ccc2c(=O)n(C3CCCC3)c(=S)[nH]c2c1	i	-13	-2	-3	-10	4	6	0
CC(=O)c1cc2c(cc1NC(=O)CN1CCCCCC1)OCO2	i	-29	-5	0	2	0	0	0
Cc1cccc(OC(C)C(=O)Nc2ccc(S(=O)(=O)N3CCCC3)cc2)c1 (stereo not given)	i	-13	-5	1	-12	-3	-2	-2
Further records
SMILES	Rce1 inhib	HIV Env fusion	MT1-MMP act inh	MT1-MMP act inh RFP	Yeast UUG start	PABP polyA inh	eIF4H inh	CSC inhib	others
COc1cccc(NC(=O)CN(C)C(=O)c2c(-c3ccccc3)noc2C)c1	.	-6	2	0	-2	-5	0	-11
CCn1c(SCC(=O)O)nnc1-c1ccc2[nH]c(C)c(C)c2c1	i	-35	-1	3	.	7	-8	-4
O=C(Nc1ccc(F)c(Cl)c1)c1cc(-c2ccco2)on1	i	13	2	3	-10	2	12	12
Cn1cc(CN2CCCC(CNC(=O)c3ccc4c(c3)OCO4)C2)c2ccccc21 (stereo not given)	i	56*	-3	-13	-11	-4	-2	-8
CC(C)NC(=O)NC(=O)CN1c2cccc3cccc(c23)S1(=O)=O	i	-12	0	1	-6	2	-8	-15
COc1ccc(C2CC(=O)c3sc(NC(C)=O)nc3C2)cc1 (stereo not given)	i	.	-4	-6	.	0	2	0
COc1cccc2cc3c(=O)oc4ccccc4c3nc12	i	.	1	1	-21	-2	-10	-7
Cc1ccc2c(c1)N(CC(=O)N1CCN(c3nc4ccccc4s3)CC1)C(=O)C(C)O2 (stereo not given)	i	31	5	-4	8	4	-8	-2
CC(C)(C)c1nnc2sc(SCC(=O)N3CCCc4ccccc43)nn2c1=O	i	-2	-9	-12	-8	-14	0	-6
Cc1nn(C)c(C(=O)N2CCN(C(=O)c3ccco3)CC2)c1[N+](=O)[O-]	i	18	-2	2	.	16	10	-18
COc1ccc2c(c1)c(=O)cc(-c1ccccc1)n2C	i	-309	-4	-3	-7	1	1	4
C=C1C(=O)[C@]23C[C@H]1CCC2[C@@]1(C)C(C[C@@H]3O)[C@](C)(C(=O)O)CC[C@@H]1O (stereo not given in full)	.	-35	1	-6	-18	.	.	.
COc1ccc(CC(=O)Nc2ccc(C(=O)NCC(C)C)cc2)cc1	i	14	2	-4	-8	10	11	-11
COc1ccc(-c2cc3nc4c(c(N5CCC6(CC5)OCCO6)n3n2)CCC4)cc1	i	-12	-1	-6	.	-1	-10	-6
COCCNC(=O)C1(C)CCCN(C(=O)c2c(F)ccc(C)c2F)C1 (stereo not given)	.	-33	3	4	-12	.	.	.
C=CCN1C(=O)C2(OCCCO2)c2cc(CCCC)ccc21	i	12	-2	-6	-9	4	-11	-18
Cc1ccc(C(=O)NN2C(=O)C3C4C=CC([C@@H]3C2=O)C42CC2)cc1 (stereo not given in full)	i	5	5	3	.	-2	0	-3
Cc1nc2cc(C(=O)OCC(=O)Nc3cccc(Cl)c3)ccc2n1-c1ccccc1	i	-7	2	1	.	1	-17	6
O=C(COc1cccnc1[N+](=O)[O-])Nc1c(Cl)cccc1Cl	.	-1	4	3	-13	.	.	-20
O=C(O)c1c(Cl)cccc1Nc1ccccc1	.	7	1	1	-18	.	.	.
COc1cccc(CNC(=O)CCS(=O)(=O)c2ccc3c(c2)NC(=O)CS3)c1	i	-3	0	-1	-12	15	8	-13
Cc1nn(CC(=O)NC(C)C)c(C)c1[N+](=O)[O-]	i	7	2	-1	.	-2	8	-5
O=C(CCl)N1c2ccccc2Sc2c1ccc1ccccc21	.	9	-2	-1	-20	.	.	.
